Screens from PubChem BioAssay.
StopGo FLuc: lowers the firefly signal of an FMDV 2A StopGo reporter | HEK cells with a luciferase reporter of 2A StopGo recoding | Potency, µM (top dose mostly 57.5 µM), for inactives: top-dose signal change, negative = less light | 120,000 compounds, 0.23% hits | AID 1745856; active = well fitted falling curve with a large enough effect; inconclusive = small, poorly fitted or top-dose-only effect; inactive = no such curve, though single readings can be large or run the other way; note: nearly all actives have a fitted effect of over 60% in size; overnight with compound
2A Renilla: FMDV 2A StopGo reporter, Renilla signal. Potency, µM (highest dose often 57.5 µM), inactives show top-dose signal change, negative = less light. AID 1745857. HEK cells with a luciferase reporter of 2A StopGo recoding. 120,000 compounds, 0.32% hits; active means well fitted falling curve with a large enough effect; inconclusive means small, poorly fitted or top-dose-only effect; inactive means no such curve, though single readings can be large or run the other way; note: nearly all actives have a fitted effect of over 55% in size; overnight with compound
* = called active by the depositor; ? = inconclusive; & = joins results of further samples; [ ] = dose if it differs, or a comment. % is set by controls: 0 for no effect and ±100 for the full control effect; potency is the fitted concentration of half-maximal effect.

Value order: 2A Renilla | StopGo FLuc
- Cc1oc(-c2ccccc2)nc1CC(=O)Nc1cccc(S(=O)(=O)N2CCCCC2)c1
 : 159%[activator] | -24%
- COc1ccc(-c2c(NC(=O)c3ccccc3)oc3ccc(Cl)cc3c2=O)cc1OC
 : -9% | 0%
- CCn1cc(C(=O)O)c(=O)c2cc3c(cc21)OCO3
 : -1%[23.8 µM] | -2%[5.23 µM]
- COc1ccccc1CC(=O)N(Cc1ccsc1)C1CC1
 : 66%[activator] | 6%
- O=C(Cn1ncc2c3ccccc3n(Cc3ccccc3)c2c1=O)NCCCN1CCCCC1
 : -13% | -16%
- CC(NS(=O)(=O)Cc1ccc(F)cc1)c1cccs1 (stereo not given)
 : 20% | 14%
- COc1ccc(CN2CCN(C(=O)COc3ccccc3)CC2)c(OC)c1
 : -2% | 17%
- O=C(NCc1cccc(Cl)c1)c1cc2c(s1)-c1ccccc1OC2
 : 94%[activator] | 47%[activator]
- CCN1CCN(c2oc(/C=C/c3ccccc3)nc2C#N)CC1
 : 22% | 0%
- O=C(NC12CC3CC(CC(C3)C1)C2)C1CCN(S(=O)(=O)Cc2ccccc2F)CC1
 : 8% | 11%
- Cc1cc(C)n2nc(N(Cc3ccc(C#N)cc3)S(=O)(=O)c3ccc(Cl)cc3)nc2n1
 : 189%[activator] | -12%
- COc1ccc(CNC(=O)c2cc3cc(S(=O)(=O)N4CCCCC4)ccc3n2C)c(OC)c1
 : -11% | -9%
- CCn1cc(C(=O)O)c(=O)c2cnc(N3CCCC3)nc21
 : -3%[11.5 µM] | -17%[2.3 µM]
- Cc1ccc2c(COC(=O)[C@H](C)NC(=O)c3ccccc3)cc(=O)oc2c1C
 : -15% | -3%
- CCN(CC)c1ccc(-c2nnc(SCc3ncc(-c4ccccc4)o3)o2)cc1
 : 5% | ?
- Cc1ccc(C(=O)N2CCc3cc(CNC(=O)CCc4ccccc4)ccc32)cc1
 : 61%[activator] | 0%
- O=C(c1ccc2c(c1)N(Cc1ccccc1F)C(=O)c1ccccc1S2=O)N1CCOCC1 (stereo not given)
 : 33%&20%[activator] | -2%&1%
- COc1ccc(-c2cc(C(F)(F)F)nc(S(=O)(=O)CCC(=O)Nc3ccccc3)n2)cc1
 : -8% | 41%[activator]
- CCOc1ccc(C(=O)c2cn(CC(=O)Nc3ccc(Cl)cc3)c3cc4c(cc3c2=O)OCO4)cc1
 : -16% | -19%
- c1ccc(-c2nc(C34CC5CC(CC(C5)C3)C4)co2)cc1
 : 12% | 57%[activator]
- CCn1c(=O)c2sccc2n2c(CCCC(=O)Nc3ccc(C)cc3)nnc12
 : -3% | -7%
- CCOC(=O)CSc1nc2c(c(=O)n(C)c(=O)n2C)n1Cc1ccc(C)cc1
 : 6% | 7%
- COCCCNC(=O)C1CCN(C(=O)c2cnn(-c3ccccc3)c2-n2cccc2)CC1
 : -7% | -6%
- Cc1csc2nc(COc3ccc(NC(=O)C(C)C)cc3)cc(=O)n12
 : -8% | 35%[activator]
- O=C(CSc1oc(-c2ccc(F)cc2)nc1S(=O)(=O)c1ccccc1)c1ccc(Cl)cc1
 : 170%[activator] | -20%
- OCC#CC[N+]1(CC#Cc2ccccc2)CCCC1
 : 8% | 15%
- CC(NC(=O)C1CCN(S(=O)(=O)Cc2ccccc2)CC1)c1ccccc1 (stereo not given)
 : -3% | 26%
- CN(C)S(=O)(=O)c1ccc2c(c1)c(=O)c(C(=O)N1CCN(c3cccc(Cl)c3)CC1)cn2C
 : 0% | 0%
- COC(=O)c1ccc(C)c(NC(=O)COC(=O)c2ccc(OC)cc2)c1
 : -6% | 5%
- Cc1cc(C)c(Cn2c(=O)n(Cc3ccccc3)c(=O)c3c(C)c(C)sc32)c(C)c1
 : -11% | -13%

Continued; the last 2 above are carried over.
Value order: 2A Renilla | StopGo FLuc
- COC(=O)c1ccc(C)c(NC(=O)COC(=O)c2ccc(OC)cc2)c1
 : -6% | 5%
- Cc1cc(C)c(Cn2c(=O)n(Cc3ccccc3)c(=O)c3c(C)c(C)sc32)c(C)c1
 : -11% | -13%
- COc1cccc(C(=O)/C(=C/c2cccnc2)c2nc3ccccc3o2)c1
 : ? | -100%
- COc1cc(Cl)c(NC(=O)c2cc3ccccn3n2)c(OC)c1
 : 44%[activator] | 158%[activator]
- NC(=O)c1ccccc1OCc1coc(-c2ccccc2)n1
 : ? | 6%
- COc1ccc(-c2nc3cc(NC(=O)COc4ccc(C)c(C)c4)ccc3o2)cc1
 : -6% | 77%[activator]
- CC(C)c1ccc(NC(=O)Cc2c[nH]c3ccccc23)cc1
 : 0% | 84%[activator]
- COCCCNC(=O)c1cccc(C#N)c1
 : 1% | -3%
- O=C(O)CCc1ccc(S(=O)(=O)NCCc2ccc(Cl)cc2)cc1
 : 147%[activator] | 0%
- CCOc1ccc(CN(C)C(=O)Cn2c(=O)c3c(ncn3C)n(C)c2=O)cc1
 : -18% | -17%
- O=C(O)CSCC(=O)N1CCOCC1
 : -6% | -10%
- Cc1nc2sc(C#N)c(N)c2c(C)c1C
 : 5% | 7%
- CN(C)S(=O)(=O)c1ccc(NC(=O)CN2CCN(c3ccccc3O)CC2)cc1
 : 17% | 5%
- O=S1(=O)c2ccccc2N(Cc2ccccc2F)c2ccccc21
 : -8% | -9%
- CCN1CCC[C@H]1CNC(=O)c1cc(S(N)(=O)=O)ccc1OC
 : -3% | 0%
- CSc1ccc2c(c1)N(C(=O)COC(=O)c1ccc3c(c1)OCO3)c1ccccc1S2
 : 20% | 68%[activator]
- Cc1ccc(S(=O)(=O)N(CC(=O)N2CCc3ccccc3C2)Cc2ccc(Cl)cc2)cc1
 : 8% | ?
- COc1ccc2c(C)c(CCC(=O)Nc3ccccc3OC)c(=O)oc2c1
 : 24% | 2%
- CCCCCOc1ccc(C2c3c(oc4ccccc4c3=O)C(=O)N2c2nc(C)c(C)s2)cc1OCC (stereo not given)
 : -8% | -16%
- COc1ccc(-n2nc(C(=O)NCC(=O)N(C)Cc3ccccc3)c3ccccc3c2=O)c(OC)c1
 : -4% | -5%
- Cc1ccc(NC(=O)CCc2nc3cc(Cl)ccc3n(Cc3ccccc3)c2=O)cc1
 : -1% | 7%
- CC(NC(=O)c1ccc2c(c1)sc1nc(-c3ccc(F)cc3)cn12)C12CC3CC(CC(C3)C1)C2 (stereo not given)
 : 0%&-1% | 88%&62%[activator]
- O=C(O)C(F)(F)c1ccc(F)cc1
 : 18% | 52%[activator]
- CN(CCN(C)C1CCCCC1)C(=O)c1cc2ccccc2oc1=O
 : -5% | -2%
- CCCn1c(N2CCN(C(=O)c3ccc(OC)cc3)CC2)nc2sc3c(c2c1=O)CCCC3
 : 9% | 1%
- NCCc1ccn[nH]1
 : -7% | -16%
- CC(C)c1ccc2oc(-c3ccc(NC(=O)c4cccnc4)cc3)nc2c1
 : 3% | 159%[activator]
- O=C(Cn1nnc(-c2cccc(C(F)(F)F)c2)n1)c1c[nH]c2ccccc12
 : -4% | -8%
- CN1C(=O)Cc2cc(C(=O)CSc3nnc(C4CC4)n3C3CC3)ccc21
 : -6% | 15%
- CCn1c(SCC(=O)Nc2ccccc2C(=O)OC)nc2ccsc2c1=O
 : 9% | -12%
- O=c1[nH]c(=O)n(Cc2ccccc2Cl)c2c1CN(Cc1ccccc1)CN2
 : 21% | 35%[activator]
- O=S(=O)(c1cccc(Cl)c1Cl)N1CCN(c2nnnn2-c2ccccc2)CC1
 : -2% | -7%
- Clc1ccc(-c2noc(C3CCCCC3)n2)cc1
 : 20% | 70%[activator]
- C#C[C@]1(O)CC[C@H]2[C@@H]3CCC4=CC(=O)CC[C@@H]4[C@H]3CC[C@@]21C
 : -4% | 24%[11.5 µM]
- O=C(O)CC1(CC(=O)N2CCN(C(=O)CC3(CC(=O)O)CCCCC3)CC2)CCCCC1
 : 9% | 0%
- CSc1ccc(Sc2ccc(SC)cc2)cc1
 : -11% | 0%
- CC(=O)Nc1ccc(Oc2ccc3nnc(-c4ccc(Br)cc4)n3n2)cc1
 : 34%[activator] | 21%
- CCOc1cccc2cc(C(=O)NCCOC)c(=O)oc12
 : -7% | 7%
- COc1ccc(-c2nnc(SCC(=O)Nc3cc(C)on3)n2C2CCCCC2)cc1
 : 35%[activator] | 29%
- CCN(CC)S(=O)(=O)c1ccc(-c2csc(-c3cccc(OC)c3OC)n2)cc1
 : 4% | 25%
- Cc1c(C(=O)NCc2ccccc2)sc2nc3n(c(=O)c12)CCCCC3
 : -2% | 32%[activator]
- Cc1ccc2cccc(NC(=O)COc3cccc(C)c3C)c2n1
 : -7% | -9%
- S=C(NCc1ccccc1)NC1CCSc2ccc(Cl)cc21 (stereo not given)
 : 184%[activator] | -7%
- O=C(O)CCSc1ccc(Cl)cc1
 : 14% | 16%
- CCc1nnc(NC(=O)CSc2nccn2Cc2ccc(C)cc2)s1
 : -15% | 4%
- O=C(NCc1ccccn1)c1ccc2nc(-c3ccccc3)c(-c3ccccc3)nc2c1
 : 17% | -30%
- O=C(O)C(c1ccc(Cl)cc1)c1ccc(Cl)cc1
 : 41%[activator] | 0%
- Cc1cc(C)c(NC(=O)Cn2c(=O)n(CCC(C)C)c(=O)c3cccnc32)c(C)c1
 : 3% | -10%
- COCCn1c(SCc2ccc3c(c2)OCO3)nnc1-c1ccc(Cl)cc1
 : 36%[activator] | 28%
- CCc1ccc2c(CN(C)Cc3nc4ccccc4c(=O)[nH]3)cc(=O)oc2c1
 : 33%[activator] | 39%[activator]
- O=c1cc(-c2ccccc2)nc2n(Cc3cccc(F)c3)c3ccccc3n12
 : 5% | 0%
- CCc1ccc(C2C=C(c3ccc(C)cc3)Nc3nnnn32)cc1 (stereo not given)
 : -8% | 10%
- Cc1cn(C)c(CC(=O)N2CCN(c3cccc(Cl)c3)CC2)c1C(=O)O
 : -16% | -18%
- O=C(NCC1COc2ccccc2O1)c1cccc(S(=O)(=O)N2CCN(c3ccccc3)CC2)c1 (stereo not given)
 : -13% | ?
- Cc1ccccc1CNC(=O)COC(=O)c1ccc2c(c1)NC(=O)CS2
 : 9% | 11%
- Cc1ccc(CNCc2c(C(=O)O)c(C)n(Cc3c(C)cc(C)cc3C)c2C)cc1
 : 0% | -15%
- Cc1cccc(-c2noc(CN(C(=O)COc3ccc(C(C)C)cc3)C(C)C)n2)c1
 : 28% | -9%
- O=C(COc1cccc(Br)c1)Nc1ccc(NC(=O)C2CC2)cc1
 : 8% | 14%
- CC1CCN(CCOc2ccc3c(=O)c(-c4ccccc4)coc3c2)CC1
 : 5% | 144%[activator]
- O=C(Cn1nc(C(F)(F)F)c2c1CCCC2)Nc1ccc(F)c(Cl)c1
 : ? | ?
- CCn1nnc2cc(C(=O)Nc3ccc(Cl)cc3C)ccc21
 : -8% | 14%
- COc1ccc2c(C)c(CC(=O)NCCc3ccc(S(N)(=O)=O)cc3)c(=O)oc2c1C
 : 11% | 14%

The listing continues.
Value order: 2A Renilla | StopGo FLuc
- CCc1cnc2c(c1SCC(=O)Nc1ccc(OC)c(OC)c1)c(=O)n(C)c(=O)n2C
 : -14% | -18%
- O=C(COCc1cc(-c2ccc3c(c2)OCO3)on1)Nc1cc(Cl)ccc1Cl
 : -4% | -3%
- O=C(CSc1ncnc2nc[nH]c12)Nc1ccccc1F
 : -4% | 46%[activator]
- COc1ccc(OC)c2sc(N3CCN(C(=O)c4ccco4)CC3)nc12
 : -8% | -8%
- CCCCCSc1nc2c(c(=O)[nH]c(=O)n2C)n1Cc1cccc(Br)c1
 : 14% | 21%
- CCC(=O)Nc1ccc(-c2nc3ncccc3o2)cc1C
 : -11% | 86%[activator]
- COc1ccc(-c2coc3c2c(C)cc2oc(=O)c(C)c(C)c23)cc1
 : 62%[activator] | -11%
- Cc1ccc(-c2ccc(/C=C(\C#N)C(=O)NC(C)(C)C)o2)cc1
 : -4% | 157%[activator]
- O=C(CN1CCN(CC(=O)c2c[nH]c3ccccc23)CC1)NC1CC1
 : -2% | 21%
- Cc1cccc(C(=O)N2CCc3cc(CNC(=O)c4cc5ccccc5[nH]4)ccc32)c1
 : 67%[activator] | -22%
- FC(F)(F)c1cccc(Oc2ncnc3sc(-c4ccccc4)cc23)c1
 : 0% | -2%
- Cc1ccc(CCC(=O)N(C)Cc2cccs2)cc1
 : 179%[activator] | 92%[activator]
- CC(C)(C)N=C1NN=C(c2c[nH]c3ccccc23)CS1
 : -9% | 142%[activator]
- NC1(C(=O)O)CCOCC1
 : -8% | -3%
- COc1ccc([C@@H]2Sc3ccccc3NC(=O)[C@@H]2O)cc1
 : 15% | -8%[11.5 µM]
- COc1ccccc1OCCCn1c(-c2ccc(Cl)cc2)nc2ccccc2c1=O
 : -13% | -6%
- CCCCSCCCNC(=O)c1ccc2c(c1)N(Cc1cccc(Cl)c1)C(=O)c1ccccc1S2=O (stereo not given)
 : 1% | -6%
- Nc1nonc1C(=O)N1CCN(C(=O)Nc2ccccc2)CC1
 : -1% | 2%
- O=C(N/N=C/c1cccc(Cl)c1)c1cccs1
 : 9% | 231%[activator]
- CCOc1ccc(Nc2oc(-c3cccc(Cl)c3)nc2C#N)cc1
 : 4% | 129%[activator]
- CN(CCO)C(=O)c1nc(-c2ccc3cc[nH]c3c2)no1
 : 35%[activator] | 56%[activator]
- N#Cc1c(N)n(-c2cccc(Cl)c2)c2nc3ccccc3nc12
 : -4% | -9%
- CC(C)Oc1ccc(CNS(=O)(=O)c2csc(C(N)=O)c2)cc1
 : ? | ?
- Cc1ccc(Cn2c(=O)n(-c3cccc(C(F)(F)F)c3)c(=O)c3c(C)c(C)sc32)c(C)c1
 : ? | -12%
- Cc1ccc(C(=O)/C(C#N)=C/c2ccc(OCc3ccccc3Cl)cc2)cc1
 : 24% | 0%
- CCCCn1c(SCC(=O)N2CCOc3ccc(C)cc32)nc2ccsc2c1=O
 : -2% | -18%
- O=C(Cn1c(=O)c2c(ncn2Cc2ccco2)n(Cc2ccccc2)c1=O)N1CCNC1=O
 : 2% | 9%
- N#Cc1ccc(F)c(CSc2ccccn2)c1
 : -3% | 16%

Some of the compounds tested; rates above refer to the full screens.
